Screens: PubChem BioAssay, Broad Institute
Hedgehog inh: blocks Sonic Hedgehog signaling. hit rate 2.1% among 22,000. Shh-LIGHT2 Gli-luciferase reporter, 30 h. inhibition, % (concentration not given with the values);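 active means replicate mean of 65% or more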;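 further: pathway switched on by Shh-conditioned medium diluted 1 in 25 in low serum; 100 nL library stock added to about 40 µL; 0% = median of neutral wells and 100% = positive control level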
MITF inh: MITF inhibition; inhibition, % (no concentration beside the values); TRPM1 promoter luciferase, luminescence, 24 h; hit rate 0.28% among 37,000;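 active means most replicates at 85% or more, or half of them and the mean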;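 further: human melanocyte line stably carrying TRPM1 promoter luciferase reporter; 0% = vehicle wells and 100% = a positive control; the first replicate is given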
YB-1 expression: YB-1 expression inhibition | U2OS, qRT-PCR YB-1 vs CDIP delta delta Cp, 16 h; stronger effect = higher value; zero = DMSO, each unit about twofold | hit rate 0.37% among 30,000 | delta delta Cp (YB-1 minus CDIP) (test concentration not listed);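 active means delta delta Cp rounded down to an integer at or above 3, about 3 SD of DMSO wells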;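 further: higher means less YB-1 transcript or more CDIP transcript relative to DMSO; stock transfer was 100 nL into about 100 µL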
PD-1 reversal: reversal of PD-1 mediated T-cell inhibition | primary human CD4 T cells, PD-L1 beads, CellTiter-Glo 96 h | activation, % (concentration not given with the values) | 29,000 tested, under 10 active | AID 2316;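 active means replicate mean of 50% or more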;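 further: 0% = median vehicle wells and 100% = positive control; 100 nL library stock added to about 50 µL; numbers are from one replicate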
The depositor's hits bear a star; x = no result given. Not all compounds are listed. The share of hits here may be higher or lower than overall.

Screens in order: MITF inh	Hedgehog inh	YB-1 expression	PD-1 reversal
1: CCC(=O)O[C@H]1CCC2C3CCC4=CC(=O)CC[C@]4(C)C3CC[C@@]21C (stereo partly specified)
 : -3	-3	-0.028	x
2: O=C(O)C1C2CCC(O2)C1C(=O)Nc1ccc(Cl)cc1 (stereo unspecified)
 : 13	x	x	-3.6
3: O=c1c2ccccc2[nH]c(=S)n1-c1ccc(Cl)c(Cl)c1
 : -7	-23	-0.47	0.7
4: C=C1C([C@]2(C)C(CC(=O)OC)[C@@](C)(COC(C)=O)OC(=O)C[C@@H]2OC(C)=O)[C@@H](OC=O)[C@H](OC(=O)C(OC(C)=O)C(C)CC)[C@@]2(C)[C@H](c3ccoc3)CC(=O)C12O (stereo partly specified)
 : 5	-17	-0.17	x
5: CCCN(CCC)CCc1ccc(O)c(O)c1
 : -8	-14	-0.44	x
6: O=c1cc(O)c2ccccc2o1
 : -1	-22	1.7	0.7
7: CCC(=O)O[C@H]1CC[C@H]2[C@@H]3CCC4=CC(=O)CC[C@]4(C)[C@H]3CC[C@]12C
 : -1	-6	0.18	x
8: CC(C)[C@@]1(NC(=O)[C@@H]2CC3c4cccc5[nH]cc(c45)C[C@H]3N(C)C2)O[C@@]2(O)[C@@H]3CCCN3C(=O)[C@H](Cc3ccccc3)N2C1=O (stereo partly specified)
 : -6	22	0.23	x
9: c1ccc2c(N3CCNCC3)cccc2c1
 : 25	39	-0.51	x
10: Cc1ccnc(NC(c2ccccc2[N+](=O)[O-])c2ccc3ccc(C)nc3c2O)c1 (stereo unspecified)
 : 57	x	x	-15
11: O=C(CC[N+](=O)[O-])OC[C@H]1O[C@@H](O)[C@H](OC(=O)CC[N+](=O)[O-])[C@@H](OC(=O)CC[N+](=O)[O-])[C@@H]1OC(=O)CC[N+](=O)[O-]
 : 9	41	0.29	x
12: COc1ccc2c(c1O)-c1c(OC)c(OC)cc3c1[C@H](C2)N(C)CC3
 : -3	5	-0.22	x
13: COc1ccc2c(c1OC)C(=O)O[C@H]2[C@@H]1c2cc3c(cc2CCN1C)OCO3
 : 10	-39	0.14	x
14: CO[C@H](C)C(O)(C(=O)OCC1=CCN2CC[C@H](O)[C@@H]12)C(C)C (stereo partly specified)
 : -10	-68	-0.47	x
15: C=C1[C@@]23C(=O)O[C@H](C)[C@]24O[C@@]2(C(=C)[C@]5(C=CC(=O)OC5(C)C)CC[C@]32C)[C@H](O)[C@@]1(C)OC4=O
 : 1	-2	-0.38	-1.7
16: CC12CCC3C(CC=C4CC(O)CCC43CO)C1CCC2OC(=O)c1ccccc1 (stereo unspecified)
 : 16	7	0.055	-0.4
17: CCOP(=S)(OCC)SCn1c(=O)oc2cc(Cl)ccc21
 : 17	14	0.36	x
18: CC1(C)C(=O)C=C[C@@]2(C)C1C(=O)C(=O)[C@]1(C)C2CC[C@@]2(C)[C@H](c3ccoc3)C[C@H]3O[C@]321 (stereo partly specified)
 : 108*	-14	0.45	x
19: c1cncc(C2N=C(c3cnccn3)NN2)c1 (stereo unspecified)
 : -44	-53	x	5.2

Reformatted: entries from further up.
[10] Cc1ccnc(NC(c2ccccc2[N+](=O)[O-])c2ccc3ccc(C)nc3c2O)c1 (stereo unspecified)
[11] O=C(CC[N+](=O)[O-])OC[C@H]1O[C@@H](O)[C@H](OC(=O)CC[N+](=O)[O-])[C@@H](OC(=O)CC[N+](=O)[O-])[C@@H]1OC(=O)CC[N+](=O)[O-]
[12] COc1ccc2c(c1O)-c1c(OC)c(OC)cc3c1[C@H](C2)N(C)CC3
[8] CC(C)[C@@]1(NC(=O)[C@@H]2CC3c4cccc5[nH]cc(c45)C[C@H]3N(C)C2)O[C@@]2(O)[C@@H]3CCCN3C(=O)[C@H](Cc3ccccc3)N2C1=O (stereo partly specified)
[17] CCOP(=S)(OCC)SCn1c(=O)oc2cc(Cl)ccc21
entry no.	10	11	12	8	17
MITF inh	57	9	-3	-6	17
Hedgehog inh	x	41	5	22	14
YB-1 expression	x	0.29	-0.22	0.23	0.36
PD-1 reversal	-15	x	x	x	x

Gathered by group: the compounds so far with four or more nitrogen atoms
Screens in order: MITF inh	Hedgehog inh	YB-1 expression	PD-1 reversal
8: CC(C)[C@@]1(NC(=O)[C@@H]2CC3c4cccc5[nH]cc(c45)C[C@H]3N(C)C2)O[C@@]2(O)[C@@H]3CCCN3C(=O)[C@H](Cc3ccccc3)N2C1=O (stereo partly specified)
 : -6	22	0.23	x
10: Cc1ccnc(NC(c2ccccc2[N+](=O)[O-])c2ccc3ccc(C)nc3c2O)c1 (stereo unspecified)
 : 57	x	x	-15
11: O=C(CC[N+](=O)[O-])OC[C@H]1O[C@@H](O)[C@H](OC(=O)CC[N+](=O)[O-])[C@@H](OC(=O)CC[N+](=O)[O-])[C@@H]1OC(=O)CC[N+](=O)[O-]
 : 9	41	0.29	x
19: c1cncc(C2N=C(c3cnccn3)NN2)c1 (stereo unspecified)
 : -44	-53	x	5.2
